Screening data: PubChem, several laboratories
B2AR ag: human beta-2 adrenergic receptor agonism by FAP; P07550; Am2.2-beta2AR cells, FAP receptor internalization, flow cytometry; reference of the scale not given here; response, % (concentration not given with the values); 340,000 compounds, 0.43% hits;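 active means response above a set limit, near 3 SD of response in nonfluorescent compounds, cut at about 42% in these data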;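 further: stock transfer was 100 nL into about 11 µL; a reference agonist was the positive control; negative values mostly stem from fluorescent compounds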
Target sequence (P07550 whole entry, looked up): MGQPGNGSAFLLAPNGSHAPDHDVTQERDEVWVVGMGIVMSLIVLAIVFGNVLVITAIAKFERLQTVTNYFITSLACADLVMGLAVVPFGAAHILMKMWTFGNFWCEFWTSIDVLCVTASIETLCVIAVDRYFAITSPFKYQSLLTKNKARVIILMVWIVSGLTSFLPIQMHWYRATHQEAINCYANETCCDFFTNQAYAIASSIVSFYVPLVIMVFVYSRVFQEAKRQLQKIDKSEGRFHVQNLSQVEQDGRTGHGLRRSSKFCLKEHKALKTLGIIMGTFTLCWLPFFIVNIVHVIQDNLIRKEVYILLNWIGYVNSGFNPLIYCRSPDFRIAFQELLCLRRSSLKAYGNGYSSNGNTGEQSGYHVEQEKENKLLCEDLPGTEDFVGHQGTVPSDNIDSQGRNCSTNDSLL
UCH37 DUB inh: inhibitors of human deubiquitinating enzyme UCH37. 330,000 compounds, 0.33% hits. purified proteasome/UCH37, Ub-AMC cleavage fluorescence. AID 588478. Q9Y5K5. inhibition, % (no concentration beside the values);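 active means mean of two replicates above 20%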;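 further: 0% = compound-free wells with enzyme and 100% = wells lacking proteasome; stock transfer was 100 nL into about 20 µL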
Target sequence (Q9Y5K5 whole entry, looked up): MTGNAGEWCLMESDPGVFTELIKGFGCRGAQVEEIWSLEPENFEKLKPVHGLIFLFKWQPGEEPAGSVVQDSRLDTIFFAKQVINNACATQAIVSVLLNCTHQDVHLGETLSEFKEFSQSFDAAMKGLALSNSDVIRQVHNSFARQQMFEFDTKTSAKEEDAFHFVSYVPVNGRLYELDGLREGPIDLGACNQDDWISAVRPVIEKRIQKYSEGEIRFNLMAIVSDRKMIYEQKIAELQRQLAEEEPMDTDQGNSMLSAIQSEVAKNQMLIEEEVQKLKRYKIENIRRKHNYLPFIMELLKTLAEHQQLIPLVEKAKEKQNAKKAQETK
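Schedule: 30 min plus 25 min, room temperature / Material: human UCH37 within purified proteasomes / Technique: AMC fluorescence intensity at 355/460 nm / Buffer or medium: pH 7.4 Tris-HCl (50 mM) with ovalbumin, ATP-MgCl2, DTT / Controls: wells without proteasome as full block, compound-free enzyme plus substrate as uninhibited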
Active calls of the source: *; i = inactive. This is a subset; count on the stated rates, not on these rows.

SMILES	B2AR ag	UCH37 DUB inh
COc1cc2c(cc1OC)CN(C(C)C(=O)Nc1cccc(S(=O)(=O)N3CCOCC3)c1)CC2 (stereo not given)	-0.9	4.4
CN(Cc1ccccc1F)C(=O)CN1C(=O)NC2(CCc3ccccc32)C1=O (stereo not given)	5.4	1.5
Cn1c2c(sc1=O)CCC2	6.2	4.5
CC(NC(=O)c1cccc(S(=O)(=O)N2CCN(Cc3ccccc3)CC2)c1)c1ccccc1Cl (stereo not given)	-3.0	2.9
CC(NC(=S)NCCCN1CCOCC1)C1CC2CCC1C2 (stereo not given)	9.0	0.7
CCN(C(=O)COC(=O)CCOc1ccccc1C)c1c(N)n(Cc2ccccc2)c(=O)[nH]c1=O	-3.4	-1.6
COc1ccc(-c2cccc(-c3cc(=O)oc4cc(OC)cc(OC)c34)c2)cc1	14.5	-2.1
CCN(CC)C(=O)[C@H]1C[C@H](CC(=O)NCc2cccc(C(F)(F)F)c2)C(=O)N2CCc3c([nH]c4cc(CCC(=O)N(C)C)ccc34)[C@]12C	0.1	-0.1
C=C(C)C1CC=C(C)C(=NNC(=O)c2ccncc2)C1 (stereo not given)	-19.6	3.3
COc1cc(C(=O)N2CCN(S(=O)(=O)c3cc(C)ccc3C)CC2)ccc1OCC(=O)N1CCOCC1	-1.2	2.4
COc1ccc2[nH]c3c(c2c1)CCN1C(=O)C(CC(=O)NCC24CC5CC(CC(C5)C2)C4)C[C@H](C(=O)N2CCOCC2)[C@@]31CCC1CCCC1 (stereo not given in full)	3.2	2.4
CCOc1ccc(NC(=O)CN(C)C(=O)CN2C(=O)c3ccc([N+](=O)[O-])cc3C2=O)cc1OCC	-3.0	0.3
COc1ccc(CNC(=O)C[C@H]2C[C@H](C(=O)N3CCCCC3)[C@@]3(C)c4[nH]c5cc(CCC(=O)N(C)C)ccc5c4CCN3C2=O)cc1OC	-0.4	4.8
COc1ccc(N[C@@H]2CCN3C(=O)c4ccccc4[C@@H]3C[C@H]2O)cc1	4.7	1.2
c1ccc(CCNCc2ccco2)nc1	1.1	-1.1
O=C(COC(=O)c1cncc(Br)c1)Nc1ccc(F)c(F)c1F	0.4	1.9
O=C1NNC(c2ccccc2)=N/C1=C\c1ccccc1Cl	0.9	33.9*
O=C(Cc1ccc(NC(=O)C2CCCN(C(=O)C3CCC3)C2)cc1)Nc1cccc(C(=O)N2CCCCC2)c1 (stereo not given)	1.9	1.6
COc1cccc(NC(=O)CN(C)C(=O)c2ccc(S(=O)(=O)Nc3ccccc3F)cc2)c1	8.6	1.6
COc1ccc(Cc2ccccc2C(=O)O)cc1	-2.7	-0.7
Cc1occc1-c1nnc(SC(C)C(=O)Nc2ccccc2F)o1 (stereo not given)	-3.6	2.9
COC(=O)[C@@]1(Cc2ccccc2)[C@H]2C(=O)N(C)C(=O)[C@H]2[C@H]2CN=C(SCc3ccc(C)cc3)N21	-2.0	2.5
Cc1cccc(N2CCN(C(=O)COc3ccc4c(c3)CCC4)CC2C)c1 (stereo not given)	-6.0	2.3
CC(C)CN(C(=O)COC(=O)c1cc(=O)[nH]c2ccccc12)c1c(N)n(Cc2ccccc2)c(=O)[nH]c1=O	-1.2	-23.4
CC(C)CN(C(=O)c1cc(Cl)nc2ccccc12)C1CCS(=O)(=O)C1 (stereo not given)	-8.5	-0.7
COc1cccc(CN(C)C(=O)CN2C(=O)NC(c3ccccc3)(c3ccccc3)C2=O)c1	0.7	1.2
Cc1noc(NS(=O)(=O)c2ccc(NC(=O)c3ccccc3NS(=O)(=O)c3ccc(F)c(F)c3)cc2)c1C	-6.4	0.4
CCOc1ccc(NC(=O)CN(C)C(=O)c2cc(C3CC3)nn2-c2ccccc2)cc1OCC	-12.1	-0.3
CN(CCc1ccccc1)C(=O)c1ccc(NC(=O)Cc2cccc(NC(=O)C3CCN(C(=O)C4CCCC4)CC3)c2)cc1	-13.3	0.3
CS(=O)(=O)N1CCCCC1CCN1CCCCC1 (stereo not given)	-1.5	-0.1
COCCNCC(=O)Nc1nc(C)cs1	-5.7	6.4
O=[N+]([O-])c1cc(Br)ccc1NS(=O)(=O)c1ccccc1	1.0	0.3
Cc1noc(C)c1COc1ccccc1C(=O)NC(C)c1ccc(F)cc1 (stereo not given)	5.5	3.0
C=C[C@H]1C(O[C@@H]2O[C@H](CO)[C@@H](O)[C@H](O)[C@H]2O)OC=C2C(=O)N3CCc4cc(OC)c(O)cc4[C@H]3C[C@H]21 (stereo not given in full)	5.1	2.7
CCN(C[C@H]1N[C@@](C)(C(=O)OC)[C@H]2C(=O)N(Cc3ccccc3)C(=O)[C@@H]12)C(=O)c1ccc(C(C)(C)C)cc1	7.2	3.4
Nn1c(SCC(=O)Nc2ccccc2Oc2ccccc2)nnc1C1CC1	-5.7	1.4
COc1ccc(C2CC(c3ccc(Cl)cc3)=NN2c2ccc(S(N)(=O)=O)cc2)cc1 (stereo not given)	-1.8	i
Cc1ccc(C2=NC(=O)/C(=C/c3cc(O)c(O)c(Br)c3)S2)cc1	12.7	7.6
Cc1ccc(C2/C=C\CC(NC(=O)OCC3c4ccccc4-c4ccccc43)CC(=O)N2Cc2ccccc2)cc1 (stereo not given)	-2.5	1.1
CN(C)c1ccnc(Oc2ccccc2)c1C#N	-7.4	4.1

As a working copy, 12 of the compounds above.
SMILES	B2AR ag	UCH37 DUB inh
Cc1noc(NS(=O)(=O)c2ccc(NC(=O)c3ccccc3NS(=O)(=O)c3ccc(F)c(F)c3)cc2)c1C	-6.4	0.4
CCOc1ccc(NC(=O)CN(C)C(=O)c2cc(C3CC3)nn2-c2ccccc2)cc1OCC	-12.1	-0.3
CN(CCc1ccccc1)C(=O)c1ccc(NC(=O)Cc2cccc(NC(=O)C3CCN(C(=O)C4CCCC4)CC3)c2)cc1	-13.3	0.3
CS(=O)(=O)N1CCCCC1CCN1CCCCC1 (stereo not given)	-1.5	-0.1
COCCNCC(=O)Nc1nc(C)cs1	-5.7	6.4
O=[N+]([O-])c1cc(Br)ccc1NS(=O)(=O)c1ccccc1	1.0	0.3
Cc1noc(C)c1COc1ccccc1C(=O)NC(C)c1ccc(F)cc1 (stereo not given)	5.5	3.0
C=C[C@H]1C(O[C@@H]2O[C@H](CO)[C@@H](O)[C@H](O)[C@H]2O)OC=C2C(=O)N3CCc4cc(OC)c(O)cc4[C@H]3C[C@H]21 (stereo not given in full)	5.1	2.7
CCN(C[C@H]1N[C@@](C)(C(=O)OC)[C@H]2C(=O)N(Cc3ccccc3)C(=O)[C@@H]12)C(=O)c1ccc(C(C)(C)C)cc1	7.2	3.4
Nn1c(SCC(=O)Nc2ccccc2Oc2ccccc2)nnc1C1CC1	-5.7	1.4
COc1ccc(C2CC(c3ccc(Cl)cc3)=NN2c2ccc(S(N)(=O)=O)cc2)cc1 (stereo not given)	-1.8	i
Cc1ccc(C2=NC(=O)/C(=C/c3cc(O)c(O)c(Br)c3)S2)cc1	12.7	7.6

Remaining list, next part:
SMILES	B2AR ag	UCH37 DUB inh
O=C(Cc1ccccc1)NN=C1CCCC1	-3.5	-3.1
CC(C)C(NC(=O)c1ccco1)C(=O)OCC(=O)N1CC(=O)Nc2ccccc21 (stereo not given)	-2.9	-2.6
Cc1ccccc1Cn1nc(C)c(NC(=O)c2cc3nc(-c4ccco4)cc(C(F)(F)F)n3n2)c1C	-2.7	-7.5
NC(=O)C1=C(c2ccccc2)c2ccccc2C1=O	14.2	6.5
Cc1nc(N)[nH]c(=O)c1CCCNc1ccc([N+](=O)[O-])cc1	3.4	6.1
CC1CC(C)C(=NNC(N)=O)C(C(O)CC2CCC(=O)NC2=O)C1 (stereo not given)	-6.8	4.5
COc1ccc(/C(O)=C2\C(=O)C(=O)N(CCN3CCOCC3)C2c2ccccc2OC)cc1 (stereo not given)	-2.1	7.8
CN(C(=O)c1cccc(NC(=O)Cc2ccc(NC(=O)C3CCN(C(=O)c4ccccc4)CC3)cc2)c1)C1CCC1	-1.3	3.5
Cc1nc2ccc(N)nc2nc1C	-4.9	i
COc1cc(N)c(Cl)cc1C(=O)OCC(=O)N1c2ccccc2NC(=O)C1(C)C	-5.5	0.1
Cc1ccc(S(C)(=O)=O)cc1C(=O)OCC(=O)N1CCCC1=O	-3.0	-0.4
O=c1[nH]c(=O)c2[nH]c(=S)n(-c3ccccc3)c2[nH]1	-7.9	1.6
OCCO	-4.4	0.2
Cc1cccc(C(=O)OCC(=O)N(CC(C)C)c2c(N)n(Cc3ccccc3)c(=O)[nH]c2=O)c1C	3.4	1.6
COc1ccc(C(=O)OC(C)C(=O)NC2CCCc3ccccc32)cc1OC (stereo not given)	-0.7	0.3
COc1cccc(NC(=O)CN(C)C(C)C(=O)NC(C)c2ccc(Cl)cc2Cl)c1 (stereo not given)	-1.1	6.1
Cc1ccc(S(=O)(=O)N2CCN(C(=O)COC(=O)Cc3c(F)cccc3Cl)CC2)c(C)c1	3.1	2.0
CCC(C)c1ccccc1N1CC(C(=O)N2CCN(S(=O)(=O)c3cccc([N+](=O)[O-])c3)CC2)CC1=O (stereo not given)	3.9	1.1
COc1ccc(N(CC(=O)NCc2ccc3c(c2)OCO3)S(=O)(=O)c2ccc(O)c(C(=O)O)c2)cc1	10.7	-2.8
CC[C@H]1C(O)C[C@H]2CCN3C(=O)CCC[C@H]1[C@H]23 (stereo not given in full)	-4.4	3.8
CC1CCCC(C)N1C(=O)CN1C(=O)NC2(CCOc3ccccc32)C1=O (stereo not given)	4.5	-3.4
CC(=O)c1ccc(OCCCC(=O)Nc2ccc(C)c(S(=O)(=O)N3CCOCC3)c2)cc1	3.9	0.1
Nc1ncnc2c1ncn2[C@@H]1O[C@H](CNCC(O)CO)[C@@H](O)[C@H]1O (stereo not given in full)	-5.8	-3.3
COc1c2ccoc2cc2oc(=O)ccc12	-13.6	0.7
Cc1nc2c(=O)[nH]c(=S)[nH]c2[nH]c1=O	-2.2	-1.5
COc1ccc2[nH]c3c(c2c1)CCN1C(=O)C(CC(=O)NCCCN(C)C)C[C@H](C(=O)N2CCOCC2)[C@@]31CCC1CCCC1 (stereo not given in full)	-1.8	4.0
Cc1ccc(-c2csc(/C=C3/SC(C)C(=O)N3CC(=O)Nc3ccccc3F)n2)cc1 (stereo not given)	0.7	-7.2
COc1ccc2c(-c3ccc(OCCN4CCCCC4)cc3)c(-c3ccccc3OC)sc2c1	16.4	-32.7
CCCCn1c(N)c(N(CC(C)C)C(=O)c2ccc(OC)c(S(=O)(=O)N3CCOCC3)c2)c(=O)[nH]c1=O	-4.9	1.3
CCN(C[C@H]1N[C@@](CC)(C(=O)OC)[C@H]2C(=O)N(Cc3ccccc3)C(=O)[C@@H]12)C(=O)c1ccc(C(C)(C)C)cc1	14.9	0.9
CC(=O)Nc1ccc2c(O)cc(S(=O)(=O)O)cc2c1	10.5	0.2
C[C@@H]1CN[C@@H](CCO)/C1=C\c1ccccc1	-3.4	7.7
O=C(/C=C/c1ccccc1)c1ccc2ccccc2c1	18.6	3.4
OC(CCCN1CCCCC1)(c1ccccc1)c1ccc(C(F)(F)F)cc1 (stereo not given)	2.5	2.1
CN1C(c2ccc(F)cc2)=CS/C1=C(/C#N)c1nnc2n1-c1ccccc1SC2	0.0	7.9
O=C(CN1CCCC1c1cccs1)N1CCN(S(=O)(=O)c2cccc(F)c2)CC1 (stereo not given)	-1.1	0.9
CN1CCN(S(=O)(=O)NC[C@H]2O[C@@H](n3cnc4c(N)ncnc43)[C@H](O)[C@@H]2O)CC1	0.7	0.2
O=C(NCc1ccccc1)c1cc(=O)nc2sc(-c3ccccc3)nn12	6.0	-2.1
Nc1nnc(SCC(=O)NNC(=O)c2ccccc2)s1	-0.3	0.7
CC(OC(=O)Cn1cnc2c1c(=O)n(C)c(=O)n2C)C(=O)NC1(C#N)CCCCC1 (stereo not given)	-5.7	1.7
CCCCn1c(N)c(N(CC(C)C)C(=O)c2cc(Br)c(Br)s2)c(=O)[nH]c1=O	-2.0	-0.4
COC(=O)[C@H](Cc1ccc(O)cc1)NC(=O)Cn1cnc2c(NCc3ccccc3)ncnc21	6.3	-0.4
CN(C)C(=O)CCc1ccc2c3c([nH]c2c1)[C@]1(CCC2CCCC2)[C@@H](C(=O)N2CCOCC2)C[C@H](CC(=O)NCC24CC5CC(CC(C5)C2)C4)C(=O)N1CC3	0.8	2.0
CCOC(=O)c1c(NC(=O)COC(=O)CCCOc2ccc(OC)cc2)sc(C(=O)N(C)C)c1C	-0.1	2.7
COc1ccc(Nc2nnc(SCC(=O)Nc3cc(C)on3)s2)cc1	2.4	-1.5
O=C(CCOc1cccc(Br)c1)Nc1ccc(F)c(S(=O)(=O)N2CCOCC2)c1	21.9	2.8
OC(COc1cccc2ccccc12)CN1CCOCC1 (stereo not given)	-2.2	1.3
O=c1cc(-c2ccccc2)[nH]n1-c1ccccc1	-3.6	-1.0
O=C(COC(=O)c1ccc(S(=O)(=O)N2CCCCCC2)cc1)NCc1ccc(F)cc1	-5.3	-1.3
COc1ccc2nc3ccccc3[n+]([O-])c2c1	2.4	-109.5
Cc1cccc(N2O[C@H]3C=CC2CCCC3)n1	0.1	-1.0
C[C@]12c3[nH]c4cc(-c5ccco5)ccc4c3CCN1C(=O)[C@@H](CC(=O)NCCC1=CCCCC1)C[C@@H]2C(=O)N1CCOCC1	3.6	-16.3
Nc1c(N(CCCO)C(=O)CCCN2C(=O)c3cccc4cccc(c34)C2=O)c(=O)[nH]c(=O)n1Cc1ccccc1	-4.5	-8.5
Cc1cccc(N2CCN(C(=S)c3ccc4c(c3)OCO4)CC2)c1	-2.7	1.7
